# Screening data (PubChem)
# YopH PTP inh – inhibitors of Yersinia enterocolitica YopH tyrosine phosphatase | fluorescence Ex485/Em525 | inhibition, %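 (about 10 µM by stock and volumes)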 | actives 0.16% (n = 140,000) | AID 898;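 active = inhibition of 50% or more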;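 also: controls were vehicle for no effect and minimum signal wells for full effect; inactives centre near -20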
# Arbovirus inh – blocks arbovirus infection; arbovirus infection cell-based antiviral screen; inhibition, % at 10 µM; actives 0.37% (n = 200,000);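 active = inhibition from about 30%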;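 also: bluetongue infection of BSR cells; cell survival read as ATP light after 72 h; 0% = infected wells without compound and 100% = uninfected wells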
# RecA intein inh – Mtb RecA intein splicing inhibition; actives 0.75% (n = 290,000); cell-free RecA intein splicing, fluorescence; inhibition, %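 (about 9 µM by stock and volumes)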; AID 2221; in the data active = inhibition above about 30%; inconclusive = no clear call, values can overlap the other calls;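 also: 0% = vehicle wells and 100% = reference inhibitor control wells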
# Target sequence (P9WHJ3 whole entry, looked up): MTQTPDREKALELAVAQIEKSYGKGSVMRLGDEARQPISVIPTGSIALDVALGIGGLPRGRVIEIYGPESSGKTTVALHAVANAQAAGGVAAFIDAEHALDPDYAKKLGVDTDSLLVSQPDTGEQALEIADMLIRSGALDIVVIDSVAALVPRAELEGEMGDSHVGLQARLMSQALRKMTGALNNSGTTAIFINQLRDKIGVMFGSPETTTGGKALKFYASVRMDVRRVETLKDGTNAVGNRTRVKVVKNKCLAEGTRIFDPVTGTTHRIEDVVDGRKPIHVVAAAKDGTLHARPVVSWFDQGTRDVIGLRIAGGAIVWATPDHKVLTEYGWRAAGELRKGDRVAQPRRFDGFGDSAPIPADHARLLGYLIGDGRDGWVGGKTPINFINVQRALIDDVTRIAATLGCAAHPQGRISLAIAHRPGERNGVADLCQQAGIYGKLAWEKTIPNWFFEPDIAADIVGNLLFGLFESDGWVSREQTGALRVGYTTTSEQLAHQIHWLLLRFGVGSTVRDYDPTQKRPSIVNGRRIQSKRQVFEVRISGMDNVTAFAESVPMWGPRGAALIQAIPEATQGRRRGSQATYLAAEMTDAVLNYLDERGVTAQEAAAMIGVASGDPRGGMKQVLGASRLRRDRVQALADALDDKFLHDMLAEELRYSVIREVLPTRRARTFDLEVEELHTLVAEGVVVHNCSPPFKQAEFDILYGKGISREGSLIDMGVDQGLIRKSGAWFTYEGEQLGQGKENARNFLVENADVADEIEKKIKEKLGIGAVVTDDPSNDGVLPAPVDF
# Mtb H37Rv – M. tuberculosis H37Rv growth inhibitors, H37Rv strain (AID 1626); M. tuberculosis H37Rv growth inhibition; higher % means a stronger effect; actives 0.95% (n = 220,000); inhibition, % at 10 µM; hits with a dose series show IC50 in µM;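 active = confirmed in a dose series; inconclusive = inhibition above 80% but not taken into the dose series; inactive = below 80% or under 30% at every dose of the series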;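 also: bacteria incubated seven days before Alamar blue readout; 0% = bacteria only wells and 100% = bacteria with antibiotic wells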
# Mtb bLac sens – beta-lactam sensitization of Mtb H37Rv; M. tuberculosis H37Rv growth with meropenem, percent inhibition; hits of this screen are not shown here; inhibition, % at 25 µM; actives 0.27% (n = 330,000); AID 434955;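 active = about 74% or more and at least 40 points above the plate without the antibiotic, then above 30% in a dose series; inconclusive = first-round hits that could not be retested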;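 also: growth measured after seven days incubation then overnight dye step; 0% = bacteria only wells and 100% = bacteria with antibiotic; twin plates without the antibiotic show which effects depend on it; some results filed as inactive read as strong as hits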
# Arbovirus inh repeat – recorded beside Arbovirus inh, whose call it bears; inhibition, %; measured here: 10K subset replicate screen; many hits read low in the repeat;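 first of two repeat runs on a subset; 0% = infected and 100% = uninfected wells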
# * = called active by the depositor; ? = inconclusive; . = no result given; & = joins results of further samples. Only part of the results is shown; rates above refer to the full screens.
SMILES,YopH PTP inh,Arbovirus inh,RecA intein inh,Mtb H37Rv,Mtb bLac sens,others
CC1(C)CC2(CC(c3ccccc3F)c3cc(Cl)c(O)cc3O2)NC(=S)N1 (stereo not given),.,-22,3.4,?,-4,
CC1CC(C)CN(C(=O)c2ccc(-c3ccc([N+](=O)[O-])cc3)o2)C1 (stereo not given),.,.,7.5,.,100,
Cc1cc[n+](CC(=O)c2cccs2)cc1,-13,4,-1.8,0%,-6,
COc1ccc(COC(=O)c2ccc(S(=O)(=O)N3CCC(C)CC3)cc2)cc1,.,.,-1.5,.,5,
Cc1ccc(C(=O)CSc2ncn[nH]2)cc1,-10,-1,-1.7,4%,40,
CSC1=NCCN1C(=O)C(C)Oc1ccccc1 (stereo not given),-25,2,1.7,-12%,-3,Arbovirus inh repeat=-1
COC(CNC(=O)C1CC(=O)N(CCc2ccccc2)C1)OC (stereo not given),-3,1,-0.9,-10%,-5,
CCOC(=O)COc1ccc2cc(C(=O)OCC)c(=O)oc2c1,-57,3,.,.,77,Arbovirus inh repeat=0
CCOC(=O)C1CCN(C(=O)c2ccc(OC3CCN(C(=O)CCOC)CC3)cc2)CC1,.,.,-1.5,.,-4,
O=C(NCN1CCN(c2ccccn2)CC1)c1cnccn1,-17,7,-1.2,-6%,2,
Cc1cc(=O)oc2cc(OCCCC[n+]3ccccc3)ccc12,.,.,-0.3,-4%,-8,
CC1(C)CC(=O)c2sc(NC(=O)c3ccc4ncsc4c3)nc2C1,-23,-11,0.0,6%,3,
CCOC(=O)NNC(=O)CCn1c2c(c3ccccc31)CCCC2,.,.,-0.6,-3%,-2,
CCN(CC)S(=O)(=O)c1ccc(OCC(=O)NCc2ccccc2)cc1,-11,-4,-0.1,-4%,7,
COc1ccc(C(=O)c2c(C)oc3ccc(O)cc23)cc1,.,.,3.7,.,9,
CCC(C)n1nnc2c(=O)oc3ccccc3c21 (stereo not given),-12,5,3.9,60%,98,
Cc1ccc2oc(-c3ccc(NC(=O)c4ccc5c(c4)OCO5)cc3)nc2c1,-23,-9,-5.3,1%,-4,
Cc1ccc(Nc2nnc(SC3CCOC3=O)s2)cc1 (stereo not given),1,-3,2.1,-6%,-5,
O=C(/C=C/c1ccc(S(=O)(=O)N2CCOCC2)cc1)OCC(=O)c1ccc([N+](=O)[O-])cc1,.,.,0.6,-7%,1,
O=C(CCN1C(=O)/C(=C\c2cccs2)SC1=S)NC1=NCCS1,-19,-4,-0.6,-3%,?,
CCOc1ccc(N(CC(=O)NC2CCCC(C)C2C)S(=O)(=O)c2c(C)noc2C)cc1 (stereo not given),-50,-4,.,-4%,9,Arbovirus inh repeat=4
CC(C)CN1CCC(=O)N([C@H](COc2ccccc2)Cc2ccccc2)CC1,.,.,-0.2,.,-7,
Cc1ccccc1C(=O)NNC(=O)CCCCC(=O)NNC(=O)c1ccccc1C,.,.,-0.3,.,-20,
COc1ccc(S(=O)(=O)Nc2nnc(C(C)C)s2)cc1,-48,1,-0.3,-10%,-4,
CCOC(=O)CNC(=O)CN1C(=O)CCS(=O)(=O)c2ccccc21,-4,5,-2.8,1%,-11,
CCCNC(=O)C/C(C)=N/NC(=O)COc1ccc(C)cc1Br,10,0,-17,14%,5,
COc1cccc2c(=O)n(CC(=O)N3CCc4ccccc43)ccc12,-43,-2,0.8,1%,1,
O=C(Nc1cc(S(=O)(=O)N2CCCC2)ccc1Cl)C1=COCCO1,5,0,1.7,-3%,2,
Cc1ccc(NC(NC(=O)Cc2ccccc2)C(Cl)(Cl)Cl)cc1 (stereo not given),-21,9,.,6%,.,
Cc1ccc(C2SCC(=O)N2Cc2ccccc2)cc1 (stereo not given),.,.,12,.,18,
CC(C)(C)C(=O)CC1(O)C(=O)N(Cc2ccccc2)c2ccccc21 (stereo not given),-11,2,-0.3,-4%,-3,
CCOC(=O)c1ccc(OC)c(OC)c1Cl,.,.,-0.3,1%,-3,
COc1ccc(N(CC(=O)NCCc2ccccc2)C(=O)c2csnn2)cc1,.,.,-0.3,.,-8,
COc1ccc(C)cc1NC(=O)C1CCN(S(=O)(=O)c2ccc3c(c2)NC(=O)CO3)CC1,.,.,-1.9,.,4,
Cc1ccc2nc(-c3ccccn3)[nH]c2c1,.,.,2.0,.,-5,
COc1cc(/C=C2/CC(C)OC2=O)c([N+](=O)[O-])cc1OC (stereo not given),.,.,-3.7,.,-5,
O=C(CN1C(=O)C2C3C=CC(C3)C2C1=O)Nc1ccc2c(c1)OCCO2 (stereo not given),-25,3,-0.2,-2%,-8,
CCc1ccc(-c2nc(CS(=O)CC(=O)NCc3ccco3)c(C)o2)cc1 (stereo not given),.,.,4.3,.,-5,
Cc1ccc(C2(c3noc(CN(C)CC4COCCO4)n3)CCCC2)cc1 (stereo not given),.,0,-1.3,2%,-21,
CCc1ccccc1NC(=O)CNCC(=O)Nc1ccccc1CC,.,.,-0.4,.,-7,
CCCNC(=S)N1CCC(Cc2ccccc2)CC1,.,.,4.1,.,-3,
CC(c1ccon1)N(C)Cc1cn(C)nc1-c1cccc(Cl)c1 (stereo not given),.,-4,1.2,3%,-18,
CC(C)C(=O)N1CCN(c2ccccc2NC(=S)NC(=O)c2cccs2)CC1,.,0,-0.8,1%,3,
CS(=O)(=O)c1ccc(Cl)c(NC(=O)COC(=O)Cc2c[nH]c3ccccc23)c1,.,.,-0.7,.,2,
O=C(O)c1cc(-c2ccc(/C=c3\sc4nc5ccc(Br)cc5n4c3=O)o2)ccc1Cl,.,.,-3.5,.,-2,
COc1ccc(C(=O)N/C(=C\c2cccs2)c2nc3ccccc3[nH]2)cc1OC,-14,2,2.7,-1%,?,
O=C(Nc1ccc(Cl)cc1)N1CCSCC1,-17,-1,-0.7,.,0,
CCCCOc1cccc(C(=O)Nc2ccc(S(=O)(=O)Nc3nnc(CC)s3)cc2)c1,.,.,9.9,.,1,
CCN(CC)S(=O)(=O)c1ccc(Cl)c(C(=O)NCc2ccco2)c1,.,-1,0.5,-2%,-4,
CN1[C@@H]2CC(OC(=O)[C@H](CO)c3ccccc3)C[C@H]1[C@@H]1O[C@@H]12 (stereo not given in full),-29&4,5&-5,1.4&-1.6&-1.3,-12%&-9%,.,
CCN(CC(=O)Nc1cc(Cl)ccc1C)C(=O)COc1cccc2c1OC(C)(C)C2,.,.,-1.1,.,-8,
Cc1ccc(NC(=S)N(CCN2CCOCC2)Cc2cc3cc4c(cc3[nH]c2=O)OCO4)cc1,.,0,-4.5,0%,3,
CC(c1nnc(SCC(=O)Nc2sccc2C#N)n1-c1ccc(Cl)cc1)N(C)C (stereo not given),3,4,1.6,10%,2,
CC12CC[C@H]3[C@@H](CCC4(O)C[C@H](O)CCC34/C=N/NC(=O)c3ccccc3F)C1(O)CCC2C1=CC(=O)OC1 (stereo not given in full),.,.,0.7,-8%,-1,
Cc1ccc(N2C(=O)C3C(C2=O)C2C=CC3C23CC3)cc1 (stereo not given),-39,-7,-1.6,1%,9,
Cc1cc(N)n2ncc(-c3ccccc3)c2n1,-15,-11,-0.4,9%,-10,
Cc1cccc(C(=O)Nc2nnc(C3=COCCO3)o2)c1,.,-6,2.0,?,94,
COc1ccc(Cc2nnc(SCC(=O)Nc3c(C)cccc3C)[nH]c2=O)cc1,.,.,1.1,.,-16,
Cc1cc(/C=N/NC(=O)c2ccc(O)cc2)c(C)n1CC(C)C,.,.,0.0,-2%,1,
Cc1ccc2nc(Cl)c(C3CC(c4ccco4)=NN3S(C)(=O)=O)cc2c1 (stereo not given),.,.,-0.2,0%,-4,

# 3 compounds already listed, ordered by heavy-atom count, highest first.
SMILES,YopH PTP inh,Arbovirus inh,RecA intein inh,Mtb H37Rv,Mtb bLac sens,others
Cc1ccc2nc(Cl)c(C3CC(c4ccco4)=NN3S(C)(=O)=O)cc2c1 (stereo not given),.,.,-0.2,0%,-4,
CCN(CC)S(=O)(=O)c1ccc(Cl)c(C(=O)NCc2ccco2)c1,.,-1,0.5,-2%,-4,
Cc1cccc(C(=O)Nc2nnc(C3=COCCO3)o2)c1,.,-6,2.0,?,94,

# (continued)
SMILES,YopH PTP inh,Arbovirus inh,RecA intein inh,Mtb H37Rv,Mtb bLac sens,others
COC(=O)c1ccc(NC(=O)C23CC4CC(C2)CC(n2cncn2)(C4)C3)cc1,-11,1,1.7,-4%,-1,
Cc1ccccc1NC(=S)NCc1ccccc1,-10,-2,0.4,3%,6,
COc1ccc(CCn2c(N3CCN(Cc4ccccc4)CC3)nc3c2c(=O)[nH]c(=O)n3C)cc1,-47,-9,-1.3,-6%,8,
Cc1cc(C)c2c(c1)/C(=N\N=c1\sc3ccccc3n1C)C(=O)N2,.,.,-14,-1%,19,
CN1/C(=C\C=N\NC(=O)c2ccc(O)cc2)C(C)(C)c2ccccc21,-38,6,-2.2,9%,1,
COc1ccc(-c2nc(C#N)c(NCCc3ccccc3)o2)cc1,-25,8,-1.0,6%,-3,
Cc1ccc(S(=O)(=O)N2CCN(C(=O)c3cc4c(C)nn(-c5ccccc5)c4s3)CC2)cc1,-17,-4,-0.8,0%,.,
O=C(c1ccc(N2C(=O)C3CC=C(Cl)CC3C2=O)cc1)N1CCCCC1 (stereo not given),-25,-3,-2.2,-9%,10,
Cc1nn(CC(=O)Nc2ccc(Cl)cn2)c(C)c1[N+](=O)[O-],-10,3,1.0,-7%,2,
CCOc1ccccc1-c1nc(-c2ccncc2)no1,-26,-3,5.4,-8%,2,
O=C1/C(=C/c2cccs2)SC(=S)N1c1cccc(O)c1,.,.,8.2,-5%,-5,
Cn1c(=O)c2c(nc(N/N=C/c3ccc(OC(=O)c4ccco4)cc3)n2Cc2ccc(F)cc2)n(C)c1=O,-8,-5,6.2,14%,17,
O=[N+]([O-])c1cc2c(cc1Br)CCN2,.,5,0.6,-8%,5,
Cc1nc(N2CCN(Cc3ccccc3)CC2)c(C#N)c2c1COC(C)(C)C2,20,6,0.6,8%,0,
CCOC(=O)N1CCC(NC(=O)c2cc(C(=O)Nc3ccc(S(=O)(=O)N4CCCCC4)cc3)ccc2CO)CC1,.,3,0.4,-10%,0,
CCCCn1c(N)c(N(CCOC)C(=O)c2c(C)noc2C)c(=O)[nH]c1=O,.,.,-0.7,.,-11,
c1nc2ccc(Cc3ccc4nc[nH]c4c3)cc2[nH]1,.,.,1.1,.,2,
CC(C)OC(=O)c1cc(C(=O)c2cc(Br)ccc2O)coc1=N,.,14,-6.4,-4%,-7,
Cc1ccccc1C(=O)Nc1ccccc1C(=O)NCc1ccccc1,-42,-5,3.9,-7%,16,
Cc1ccccc1NC(=O)NNC(=O)COc1ccc2ccccc2c1,.,.,1.0,.,-3,
O=C1/C(=C\c2ccco2)SC(=S)N1Cc1ccccc1,-29,-2,6.7,2%,-3,
O=C(NC(=S)N1CCN(CCO)CC1)C12CC3CC(CC(C3)C1)C2,.,1,-4.6,-1%,-7,
O=c1c(-c2cccc(Cl)c2)c[nH]n1-c1ccccc1,.,.,-2.0,.,3,
C[C@H](NC(=O)c1nc[nH]c1C(=O)N[C@@H](C)C(=O)OC(C)(C)C)C(=O)OCc1ccccc1,.,.,-0.1,.,-9,
Cc1c(C)n2c(SCC(=O)N3CCCCC3)nnc2[nH]c1=O,.,.,0.5,.,5,
Cc1csc(SCC(=O)NCc2ccccc2Cl)n1,.,3,-1.4,7%,11,
CC(C)NC(=S)N/N=C/c1ccc2c(c1)OCCO2,-1,10,-2.3,13%,7,
CCN1CCN(C(=S)c2ccc(OCC(=O)NCc3ccccc3)cc2)CC1,.,-3,2.4,-1%,-1,
COc1cc(NC(=O)c2cccnc2)c(Cl)cc1NC(=O)c1ccc(Cl)cc1,.,.,-0.7,.,41,
O=C(NCc1ccccn1)c1ccc(CNS(=O)(=O)c2cccc(C(F)(F)F)c2)cc1,.,0,1.6,0%,-3,

# Next part; it opens with the 2 that closed the last part.
SMILES,YopH PTP inh,Arbovirus inh,RecA intein inh,Mtb H37Rv,Mtb bLac sens,others
COc1cc(NC(=O)c2cccnc2)c(Cl)cc1NC(=O)c1ccc(Cl)cc1,.,.,-0.7,.,41,
O=C(NCc1ccccn1)c1ccc(CNS(=O)(=O)c2cccc(C(F)(F)F)c2)cc1,.,0,1.6,0%,-3,
O=C(CSc1nnc2ccc(-c3ccccn3)nn12)Nc1ccccc1,.,.,-14,.,-4,
CCCOc1ccc(-c2c(=O)n(O)c3ccccc3[n+]2[O-])cc1,.,.,-17,.,-2,
CCOC(=O)c1c(NC(=O)c2cccc(N3C(=O)CCC3=O)c2)sc(C)c1C,-41,-5,-2.4,-4%,3,
CC[n+]1c(/C=C/Nc2ccccc2)oc2ccc(OC)cc21,.,5,-28,7%,8,

# Two entries picked at random from those above, as already listed:
SMILES,YopH PTP inh,Arbovirus inh,RecA intein inh,Mtb H37Rv,Mtb bLac sens,others
CCOC(=O)c1c(NC(=O)c2cccc(N3C(=O)CCC3=O)c2)sc(C)c1C,-41,-5,-2.4,-4%,3,
CCCOc1ccc(-c2c(=O)n(O)c3ccccc3[n+]2[O-])cc1,.,.,-17,.,-2,
